ClpP mod: qHTS Assay for Activators of ClpP | ATP-dependent Clp protease proteolytic subunit (Bacillus subtilis (strain 168)), P80244 | purified B. subtilis ClpP, FRET peptide cleavage, 20 min | Potency, µM (top dose mostly 57.5 µM), for inactives: at the highest dose activity change, negative = active | actives 1.9% (n = 340,000) | AID 651965, 2013; active = well fitted falling curve with a large enough effect; inconclusive = small, poorly fitted or top-dose-only effect; inactive = no such curve, though single readings can be large or run the other way; also: potency is read from the fitted curve at half-maximal effect; the source files actives as falling curves though it sought activators and does not explain the sign; nearly all actives have a fitted effect of over 65% in size; many hits overshoot -100%
Target sequence (P80244 whole entry, looked up): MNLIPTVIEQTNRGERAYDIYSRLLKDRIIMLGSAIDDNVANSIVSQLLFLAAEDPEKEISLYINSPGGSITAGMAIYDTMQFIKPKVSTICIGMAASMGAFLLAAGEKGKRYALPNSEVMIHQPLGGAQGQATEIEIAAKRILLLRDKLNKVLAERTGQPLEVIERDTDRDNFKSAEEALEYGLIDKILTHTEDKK
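FRET quenching reversal measured ClpP activation: 10 microg/mL B. subtilis ClpP at pH 8 with the FRET-FV decapeptide, read at 430 nm after 320 nm excitation. The 20-min minus 0-min signal was scaled between DMSO/no-enzyme wells and ADEP (5.8 microM final).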
TRPML1 agonist: qHTS for Agonists of the Human Mucolipin Transient Receptor Potential 1 (TRPML1); TRPML1-expressing cells, Ca2+ dye fluorescence, FDSS; host cell line not named in the record; reference of the full effect not given here; Mucolipin-1 (Homo sapiens), Q9GZU1; activation, % (concentration not given with the values); AID 624414, 2012; actives 0.12% (n = 410,000); in the data active = activation above about 50%; inconclusive = about 30% to 50%; inactive = below about 30%; also: 0% is about no effect; the text of the record puts the active cut at 80%
Target sequence (Q9GZU1 whole entry, looked up): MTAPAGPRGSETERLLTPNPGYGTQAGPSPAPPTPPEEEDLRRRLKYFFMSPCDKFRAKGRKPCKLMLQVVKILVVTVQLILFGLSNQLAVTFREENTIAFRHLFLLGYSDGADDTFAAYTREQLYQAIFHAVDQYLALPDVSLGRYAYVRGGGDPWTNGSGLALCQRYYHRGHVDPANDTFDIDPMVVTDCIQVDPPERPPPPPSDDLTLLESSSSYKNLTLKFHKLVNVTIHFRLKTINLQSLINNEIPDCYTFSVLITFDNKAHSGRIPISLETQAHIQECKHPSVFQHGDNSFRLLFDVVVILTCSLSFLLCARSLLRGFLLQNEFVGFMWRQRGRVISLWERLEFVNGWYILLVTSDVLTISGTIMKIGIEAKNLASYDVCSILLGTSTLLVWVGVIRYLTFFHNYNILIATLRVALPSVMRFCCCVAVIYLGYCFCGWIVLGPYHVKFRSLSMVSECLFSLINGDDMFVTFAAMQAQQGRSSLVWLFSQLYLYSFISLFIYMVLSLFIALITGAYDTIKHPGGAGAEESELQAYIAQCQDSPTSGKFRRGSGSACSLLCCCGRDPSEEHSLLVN
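Tetracycline-induced TRPML1-DL cells are seeded and incubated overnight before loading with a no-wash Ca2+ dye and quencher. Agonist activity is taken from the 110 s fluorescence read following compound pin-transfer on an FDSS, before EC80 54-4 challenge.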
gsp antagonist: qHTS for Antagonists of gsp, the Etiologic Mutation Responsible for Fibrous Dysplasia/McCune-Albright Syndrome: qHTS. gsp-mutant cells, cAMP HTRF, 30 min; control for the full effect not named in the record. actives 0.4% (n = 340,000). AID 624288, 2012. Potency, µM (doses to about 76.9 µM), for inactives: at the highest dose activity change, negative = inhibition, hits mostly inhibitors; active = falling curve of any shape with a large fitted effect; inconclusive = falling curve, mostly with a smaller effect; inactive = flat or rising curve; cell line not stated here;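 also: intracellular cAMP measured with PDE inhibitor Ro 20-1724 present during compound exposure; potency is read from the fitted curve at half-maximal effect; % is scaled to controls: 0 for no effect and ±100 for the full control effect; nearly all actives have a fitted effect of over 65% in size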
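HTRF cAMP measurement after 30 min RT detection following 30 min, 37C compound treatment alongside […] (added as 300 uM solution) in G418-selected cells seeded at 2000/well and grown 16–24 h.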
Menin-MLL FL inh: qHTS Assay for Inhibitors Targeting the Menin-MLL Interaction in MLL Related Leukemias: Competition With Fluorescein Labeled MLL-derived Peptide. 290,000 tested, under 10 active. FP activity change, % at 61.4 µM. Fluorescence polarization, fluorescein-MLL peptide displacement from menin. AID 1766, 2009; inconclusive = falling polarisation curve, or a change in total fluorescence; inactive = total fluorescence flat and polarisation flat or rising; no compound was filed as active; the % refers to the polarisation; negative = inhibition;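 also: % of control where 0% means no effect; inhibitors lower the polarisation; unlabelled MLL peptide was the positive control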
gsp ag: qHTS for Agonist of gsp, the Etiologic Mutation Responsible for Fibrous Dysplasia/McCune-Albright Syndrome: qHTS. Potency, µM (highest dose often 76.9 µM), for inactives: at the highest dose activation (cAMP increase), usual class: activators. actives 0.13% (n = 340,000). gsp mutant cells, cAMP HTRF, 30 min; control for the full effect not named in the record; active = well fitted activation curve with a large enough effect; inconclusive = small, poorly fitted or top-dose-only effect, or another doubt; inactive = no such curve, though single readings can be large or run the other way; cell line not stated here;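 also: phosphodiesterase inhibitor Ro 20-1724 added with compounds to block cAMP breakdown; potency is read from the fitted curve at half-maximal effect; nearly all actives have a fitted effect of over 60% in size; about a fifth of the inactives were tested at one dose only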
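Cells stably selected in G418 were plated at 2000/well, grown 16-24 hr, then given compounds in DMSO with the PDE inhibitor […] (300 uM solution added) for 30 min at 37C; cAMP was read by HTRF.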
TRPML1 blocker: qHTS for Inhibitors of the Human Mucolipin Transient Receptor Potential 1 (TRPML1); Mucolipin-1 (Homo sapiens), Q9GZU1; TRPML1-inducible cells, Ca2+ dye fluorescence, FDSS; hits give low values; inhibition of EC80 agonist-evoked calcium signal; actives 0.02% (n = 390,000); activity change, negative = inhibition, % (concentration not given with the values); in the data active means activity change below about -50%; inconclusive means about -30% to -50%; inactive means above about -30%;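 also: stimulus is agonist 54-4 at its EC80 concentration; % is scaled to controls: 0 for no effect and ±100 for the full control effect; compound concentration not given in the record; the text of the record puts the active cut at -80%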
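Tet-induced TRPML1-DL cells loaded with Ca8 no-wash calcium dye were read kinetically on FDSS. Compound addition was followed by EC80 agonist 54-4 (4 uM final); inhibition was read over 110 s.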
* marks the source's active call; other numbers are inactive results; u = inconclusive; x = not tested or not shown; & = joins results of further samples; [ ] = another dose, or the depositor's remark.

Fields: ClpP mod, TRPML1 agonist, gsp antagonist, Menin-MLL FL inh, gsp ag, TRPML1 blocker
#1 Cc1cc(OCC(=O)OCC(=O)Nc2cc(C(F)(F)F)ccc2N2CCOCC2)ccc1Cl
  2.3%, -0.1, 8%, 4.3, -4%, 7
#2 CCOc1ccc(CN2CCCC(CNC(=O)c3ccc(F)cc3)C2)cc1CO (stereo not drawn)
  0.1%, 0.7, -11%, 0.1, 21%, 16
#3 O=C(CSc1nnc(-c2cccnc2)o1)Nc1ccc(F)cc1
  0.2%, -0.3, x, x, -5%, -5
#4 COC(=O)[C@H](CC(C)C)NC(=O)c1cc2c(cn1)[nH]c1ccccc12
  3.2%, -0.3, 7.9µM*, 1.4, u, -6
#5 O=C(CNS(=O)(=O)c1cccs1)N1CCCCC1
  x, -0.2, -3%, -1.9, -34%[inhibitor], 4
#6 CCCc1nc(SCC(=O)N2CCC(C)CC2)c2c(=O)n(C)c(=O)n(C)c2n1
  x, -1.0, u, 4.7, -37%[inhibitor][15.4 µM], 3
#7 O=[N+]([O-])c1cc(C(F)(F)F)ccc1NCCCCNS(=O)(=O)c1ccc2ccccc2c1
  -0.7%, 0.8, -9%, -0.9, 9%, -7
#8 CCn1c(C)c(C)c2cc(C(=O)N3CCN(c4ccccc4)CC3)ccc21
  0.0%&-0.8%, 1.5&2.8, -8%, 3.5, -29%, -10&34
#9 Fc1ccccc1CNc1ccc(Cl)c(Cl)c1
  -2.5%, 2.0, u, 2.0, 17%, -8
#10 Cc1ccccc1C(=O)Nc1nnc(S(=O)(=O)N2c3ccccc3CC2C)s1 (stereo not drawn)
  0.1%, 1.5, x, x, x, -11

Two compounds picked at random from the list so far, as already listed:
Fields: ClpP mod, TRPML1 agonist, gsp antagonist, Menin-MLL FL inh, gsp ag, TRPML1 blocker
#4 COC(=O)[C@H](CC(C)C)NC(=O)c1cc2c(cn1)[nH]c1ccccc12
  3.2%, -0.3, 7.9µM*, 1.4, u, -6
#9 Fc1ccccc1CNc1ccc(Cl)c(Cl)c1
  -2.5%, 2.0, u, 2.0, 17%, -8

(continued)
Fields: ClpP mod, TRPML1 agonist, gsp antagonist, Menin-MLL FL inh, gsp ag, TRPML1 blocker
#11 COc1ccc(Cc2nc3ccc(C(=O)NC4CCOC4)cc3o2)cc1OC (stereo not drawn)
  -4.4%, 0.0, x, x, u, -7
#12 O=C(N/N=C/C=C/c1ccc([N+](=O)[O-])cc1)C1COc2ccccc2O1 (stereo not drawn)
  -1.9%, -0.4, -8%, 3.9, 1%[15.4 µM], 29
#13 Cc1nc2scc(-c3cccs3)c2c(=O)n1-n1cccc1
  -17%, -0.4, 6%, 8.9, 29%, 1
#14 O=c1oc(Nc2ccccc2F)nc2ccccc12
  4.5%, -0.8, -23%, 0.9, -27%, -1
#15 CC(=O)c1ccc(OCCCC(=O)N2CCN(S(=O)(=O)c3cccs3)CC2)cc1
  -1.1%, -0.3, u, -2.2, 3%, 2
#16 CCN1CCN(C(CC(C)C)c2nnnn2CS(=O)(=O)c2ccc(C)cc2)CC1 (stereo not drawn)
  x, 0.8, 12%, -3.9, 5%[15.4 µM], -10
#17 CCOC(=O)c1cc2cc([N+](=O)[O-])cc(OC)c2oc1=O
  x, 2.0, -8%, -2.5, 9%[15.4 µM], 4
#18 Cc1[nH]n(-c2ccccc2)c(=O)c1N=Nc1c(O)cc(S(=O)(=O)N(C)C)c2ccccc12
  1.5%, 0.1, -4%, x, x, -18
#19 COc1cc2cc(CCOC(=O)c3ccco3)oc(=O)c2cc1OC
  -5.3%, 0.7, 2%, x, -17%, -2
#20 COc1cccc2cc(-c3nnc(-c4ccccc4)o3)c(=O)oc12
  x, 0.4, 1%, -0.8, 10%, -2
#21 COc1ccc(NC(=O)C2CCC(CNS(=O)(=O)c3ccc(Br)s3)CC2)c(OC)c1 (stereo not drawn)
  -0.1%, 4.1, x, x, x, -7
#22 COC(=O)c1oc2ccc(Br)cc2c1NC(=O)c1ccccc1
  u, 1.3, -4%[15.4 µM], 4.4, 22%, 35
#23 COc1cc(C)nc(OCCNC(=O)COc2ccc(Cl)cc2Cl)n1
  -2.4%, -0.5, -6%, 1.7, 23%, 32
#24 [O-][N+](=Cc1c(Cl)cccc1Cl)CC1(O)CCCCC1
  0.1%, -0.1, x, x, 21%, 4
#25 COc1ccccc1CNC(=O)CN1CCN(c2ccc(C(C)=O)cc2)CC1
  x, 0.1, -9%, -6.5, -3%, 16
#26 COc1cc(C(=O)NCc2ccc(C)cc2)ccc1OCc1c(C)noc1C
  -0.4%, 0.4, 5%, 1.3, 24%, -22
#27 CC(C)OC(=O)CSc1nnc(CNc2nc(-c3ccccc3)cs2)n1C
  -1.5%, 0.8, -3%[15.4 µM], 1.2, -3%, 9
#28 COc1ccc(Cc2nc3ccc(C(=O)NCC(C)(C)OC)cc3o2)cc1
  0.7%, -0.5, 2%, -2.3, 28%, 4
#29 O=C(Nc1ccc(Br)cc1)c1cc([N+](=O)[O-])cc([N+](=O)[O-])c1
  x, 0.0, -14%, -1.4, u, 4
#30 Cc1ccc(CSc2nc3c(c(SCC(=O)O)n2)CCCC3)cc1
  2.5%, 0.0, -21%, 4.0, 3%, -3
#31 Cc1ccn2c(=O)cc(CSc3nnc(C)s3)nc2c1
  -20%, 0.5, x, x, x, 15
#32 Cc1ccc(NC(=O)CO/N=C/c2ccc(N(C)C)cc2)cc1
  x, 4.3, u, u, -15%[15.4 µM], -17
#33 C#CCOCCOCCOCCNc1nc(N2CCN(C(=O)[C@H](Cc3cc4ccccc4[nH]3)n3cc([C@@H](N)C(C)CC)nn3)CC2)nc(N2CCN(C(=O)[C@H](CCCCN)n3cc([C@@H](N)CC(C)C)nn3)CC2)n1 (stereo partly drawn)
  -5.1%, 0.3, 11%, 8.1, 10%, 13
#34 Cc1cccc(-c2noc(CCCC(=O)Nc3cccnc3)n2)c1
  -1.0%, 0.1, -4%, 3.8, -22%, 13
#35 CCN1CCN(S(=O)(=O)c2ccc(OC)c(NC(=O)c3ccccc3)c2)CC1
  -0.2%, 0.3, -2%, 1.8, -5%, 9
#36 Cc1ccc(OCCC(=O)O)cc1
  x, 0.6, -2%, 1.3, 2%[15.4 µM], -2
#37 Cc1cccc(C)c1NC(=O)Cn1c(=O)n(Cc2ccco2)c(=O)c2ccc(C(=O)NC3CCCC3)cc21
  -3.3%, 1.5, x, x, x, 23
#38 CCC(=O)Nc1nc2ccc(S(C)(=O)=O)cc2s1
  -0.7%, 1.3, 11%, 4.5, 7%, 10
#39 Cc1ccc(S(=O)(=O)/N=C2/NC(=O)/C(=C\c3ccccc3)S2)cc1
  0.1%, 2.5, -1%, x, 3%[15.4 µM], 24
#40 CCc1ccccc1NC(=O)c1ccc2c(c1)CCCN2S(C)(=O)=O
  -2.3%, -0.6, x, x, x, -15
#41 CC(Sc1nc2ccccc2c(=O)n1CC1CCCO1)C(=O)NC(C)c1ccccc1 (stereo not drawn)
  -12%, 0.3, -5%, x, -9%[15.4 µM], 16
#42 N/C(=N\OC(=O)C1CCCCC1)c1cccc(Br)c1
  -0.4%, 2.7, -3%, -1.0, 20%, 3
#43 Cc1[nH]n(-c2ccc([N+](=O)[O-])cc2)c(=O)c1C=NCCc1ccc(S(N)(=O)=O)cc1
  x, -0.2, 7%, -0.5, 13%[15.4 µM], 11
#44 COc1ccccc1OCC(=O)NCC(C)NC(=O)COc1ccccc1OC (stereo not drawn)
  2.0%, 0.2, 0%, x, 6%, 5
#45 O=C(Cn1c(=O)n(Cc2ccc3c(c2)OCO3)c(=O)c2ccc(C(=O)NC3CCCCC3)cc21)Nc1ccccc1F
  -30%, 2.7, x, x, x, -6
#46 Cc1ccc2nc(-c3ccccn3)c(Nc3ccccc3C)n2c1
  -2.9%&-4.8%, 2.7, -1%, 1.4, 0%, -5
#47 COc1ccc(C(=O)N2CCCCCC2)cc1S(=O)(=O)N1CCOCC1
  0.9%, -0.1, -6%, -0.1, 0%[15.4 µM], 6
#48 Cc1ccc(C)c(Cn2c(=O)n(CCc3ccccc3)c(=O)c3c(C)c(C)sc32)c1
  -0.1%, 0.8, x, x, x, -3
#49 CC(C)(CNC(=O)c1ccc([N+](=O)[O-])c(Cl)c1)CNC(=O)c1ccc([N+](=O)[O-])c(Cl)c1
  16µM*, 0.0, u, 4.6, 0%, 41
#50 O=C(Nc1ccc2c(c1)oc1ccccc12)C1CC1
  -10%, -0.2, -10%, 4.7, -23%, -22
#51 O=C(C1CCC(=O)N(C2CCCC2)C1)N1CCC(Oc2ccccc2Cl)CC1 (stereo not drawn)
  -1.0%, -0.1, 6%, x, -33%[inhibitor], -4
#52 O=C1c2ccccc2C(=O)N1CCCSc1nc2ccccc2o1
  -0.5%, -0.5, -5%, -3.7, -21%, 10
#53 O=C1NC(c2ccc(O)cc2)Nc2ccccc21 (stereo not drawn)
  u, 0.1, 11%, 1.5, -6%[15.4 µM], 4
#54 Cc1ccc(-c2nc3ccccc3[nH]2)cc1N
  -13%, 0.4, 1%, 5.2, -53%[inhibitor], -10
#55 O=S(=O)(Nc1ccc(Cc2ccncc2)cc1)c1ccc(Br)s1
  -1.8%, 3.2, -10%, 2.9, 5%, 9
#56 COc1ccc(C(=O)O)cc1S(=O)(=O)NC(C)C
  -0.3%, x, 5%, 2.7, u, x
#57 CCc1nnc(N/N=C/c2c(C)[nH]c3ccccc23)n1N
  x, -0.3, -66%, 3.4, 12%[15.4 µM], 11
#58 CCC(=O)Nc1nnc(SCC(=O)N2c3ccccc3CC2C)s1 (stereo not drawn)
  -20%, 1.3, 0%, -0.4, -8%, -7
#59 CC(C)CSc1nnc2c(n1)[nH]c1ccccc12
  0.9%, 0.5, 10%, -0.8, u, 11
#60 CCN(CC(=O)NCc1ccc(Cl)cc1)C(=O)CN1C(=O)NC(CC)(c2ccccc2)C1=O (stereo not drawn)
  -2.5%, 1.8, 6%, x, -37%[inhibitor], 36
#61 O=C(COC(=O)CCc1ccccc1)NC12CC3CC(CC(C3)C1)C2
  -0.6%, -0.1, 13%, 2.5, 5%, -1

Screening results deposited in PubChem BioAssay by National Center for Advancing Translational Sciences (NCATS).

Random draw from the library; 2.1% or so of the library scored in one or more.
